Menin-MLL FL inh = inhibitors of human menin-MLL interaction, wild-type MLL peptide; AID 1766; Fluorescence polarization, fluorescein-MLL peptide displacement from menin; FP activity change, % at 61.4 µM; 290,000 tested, under 10 active; inconclusive = falling polarisation curve, or a change in total fluorescence; inactive = total fluorescence flat and polarisation flat or rising; no compound was filed as active; the % refers to the polarisation; negative = inhibition;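 also: % of control where 0% means no effect; inhibitors lower the polarisation; unlabelled MLL peptide was the positive control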
TRPML1 inh = human mucolipin-1 channel inhibition. TRPML1-inducible cells, Ca2+ dye fluorescence, FDSS; active compounds read low; inhibition of EC80 agonist-evoked calcium signal. Q9GZU1. actives 0.02% (n = 390,000). activity change, negative = inhibition, % (no concentration beside the values). AID 624415; in the data active means activity change below about -50%; inconclusive means about -30% to -50%; inactive means above about -30%;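 also: stimulus is agonist 54-4 at its EC80 concentration; % is scaled to controls: 0 for no effect and ±100 for the full control effect; compound concentration not given in the record; the text of the record puts the active cut at -80%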
Target sequence (Q9GZU1 whole entry, looked up): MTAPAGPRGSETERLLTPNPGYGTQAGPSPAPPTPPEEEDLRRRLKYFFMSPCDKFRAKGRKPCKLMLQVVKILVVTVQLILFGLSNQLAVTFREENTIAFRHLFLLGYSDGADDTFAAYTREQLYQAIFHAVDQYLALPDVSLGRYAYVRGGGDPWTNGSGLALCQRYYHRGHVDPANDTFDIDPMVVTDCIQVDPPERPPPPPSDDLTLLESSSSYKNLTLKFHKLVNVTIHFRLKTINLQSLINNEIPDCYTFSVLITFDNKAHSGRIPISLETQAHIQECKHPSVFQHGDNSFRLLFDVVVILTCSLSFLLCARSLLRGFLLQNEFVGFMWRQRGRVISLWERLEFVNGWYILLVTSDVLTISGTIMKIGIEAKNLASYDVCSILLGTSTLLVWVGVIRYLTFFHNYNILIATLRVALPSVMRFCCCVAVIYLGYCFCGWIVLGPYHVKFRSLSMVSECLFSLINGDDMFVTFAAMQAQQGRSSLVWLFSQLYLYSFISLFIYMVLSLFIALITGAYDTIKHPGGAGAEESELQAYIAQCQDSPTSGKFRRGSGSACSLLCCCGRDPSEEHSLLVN
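Tet-induced TRPML1-DL cells loaded with Ca8 no-wash calcium dye were read kinetically on FDSS. Compound addition was followed by EC80 agonist 54-4 (4 uM final); inhibition was read over 110 s.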
TRPV1 potentiator = human TRPV1 potentiation | Q8NER1 | TRPV1-expressing cells, Fluo-8 calcium influx, capsaicin EC20 potentiation; host cell line not named in the record; control for the full effect not named in the record | potentiation, % at 8.33 µM | actives 0.02% (n = 320,000); active means potentiation above 80%; inconclusive means 30% to 80%; inactive means below 30%; also: 0% is about no effect
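Cells expressing TRPV1 were dye-loaded with Fluo-8 and read kinetically: 10 s baseline, 3 min after compound (agonist portion), then 2 min after EC20 capsaicin (allosteric enhancer portion). Calcium-bound dye fluorescence at 480/520 nm.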
ClpP mod = qHTS Assay for Activators of ClpP; ATP-dependent Clp protease proteolytic subunit (Bacillus subtilis (strain 168)), P80244; purified B. subtilis ClpP, FRET peptide cleavage, 20 min; Potency, µM (doses to about 57.5 µM), inactives show at the top dose activity change, negative = active; actives 1.9% (n = 340,000); active = well fitted falling curve with a large enough effect; inconclusive = small, poorly fitted or top-dose-only effect; inactive = no such curve, though single readings can be large or run the other way; also: potency is read from the fitted curve at half-maximal effect; the source files actives as falling curves though it sought activators and does not explain the sign; nearly all actives have a fitted effect of over 65% in size; many hits overshoot -100%
Target sequence (P80244 whole entry, looked up): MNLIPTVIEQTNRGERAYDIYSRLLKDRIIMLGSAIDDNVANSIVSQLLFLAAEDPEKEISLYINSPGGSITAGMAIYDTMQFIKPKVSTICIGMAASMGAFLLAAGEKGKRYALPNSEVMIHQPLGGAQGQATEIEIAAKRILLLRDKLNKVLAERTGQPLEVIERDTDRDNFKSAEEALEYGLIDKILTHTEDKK
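ClpP 10 microg/mL final, pH 8 Tris/KCl buffer with BSA, glycerol, Tween-20; compound pinned in; FRET-FV substrate; RT 20 min; Ex320/Em430; ΔFRET vs ADEP 5.8 microM, DMSO, no enzyme.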
gsp ag = activates gsp, the McCune-Albright syndrome mutation. gsp mutant cells, cAMP HTRF, 30 min; control for the full effect not named in the record. Potency, µM (series often up to 76.9 µM), inactives show at the top dose activation (cAMP increase), actives largely listed as activators. actives 0.13% (n = 340,000); active = well fitted activation curve with a large enough effect; inconclusive = small, poorly fitted or top-dose-only effect, or another doubt; inactive = no such curve, though single readings can be large or run the other way; cell line not stated here;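 also: phosphodiesterase inhibitor Ro 20-1724 added with compounds to block cAMP breakdown; potency is read from the fitted curve at half-maximal effect; nearly all actives have a fitted effect of over 60% in size; about a fifth of the inactives were tested at one dose only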
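Cells stably selected in G418 were plated at 2000/well, grown 16-24 hr, then given compounds in DMSO with the PDE inhibitor […] (300 uM solution added) for 30 min at 37C; cAMP was read by HTRF.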
Sfp inh = blocks B. subtilis Sfp PPTase activity; AID 1490; Potency, µM, inactives show max response, negative = inhibition, hits mostly inhibitors; actives 3.5% (n = 310,000); Q9F4F7; Biochemical Sfp PPTase activity, qHTS; active = well fitted inhibition curve with a large enough effect; inconclusive = small, poorly fitted or top-dose-only effect, or another doubt; inactive = no such curve, though single readings can be large or run the other way;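 also: the enzyme is Sfp with the accession as filed and its product quenches rhodamine fluorescence; potency is read from the fitted curve at half-maximal effect; 0% = enzyme reaction without inhibitor and -100% = no enzyme wells; top concentration of the series not given in the record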
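Buffer: 50 mM Hepes-Na pH 7.6, 10 mM MgCl2, 0.01% Nonidet P-40, 0.01% BSA. Enzyme 15 nM, pre-exposed to compound 15 min; substrates then added and fluorescence change tracked over 30 min.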
gsp antagonist = antagonists of gsp mutant (McCune-Albright syndrome). gsp-mutant cells, cAMP HTRF, 30 min; control for the full effect not named in the record. Potency, µM (series often up to 76.9 µM), for the others: top-dose activity change, negative = inhibition, most hits filed as inhibitors. actives 0.4% (n = 340,000); active = falling curve of any shape with a large fitted effect; inconclusive = falling curve, mostly with a smaller effect; inactive = flat or rising curve; cell line not stated here;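 also: intracellular cAMP measured with PDE inhibitor Ro 20-1724 present during compound exposure; potency is read from the fitted curve at half-maximal effect; % is scaled to controls: 0 for no effect and ±100 for the full control effect; nearly all actives have a fitted effect of over 65% in size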
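Measurement of cellular cAMP by homogeneous time-resolved fluorescence following a 30 min compound exposure at 37C. The PDE inhibitor […] was present throughout; the assay buffer was DPBS with 0.05% BSA and 0.005% Tween 20.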
Active calls of the source: *; ? = inconclusive; nt = not tested or not shown; [ ] = dose if it differs, or a comment.

SMILES	Menin-MLL FL inh	TRPML1 inh	TRPV1 potentiator	ClpP mod	gsp ag	Sfp inh	gsp antagonist
CN(CC(=O)Nc1cccc(F)c1)C(=O)c1ccc(OCc2cn3ccccc3n2)cc1	nt	-10	nt	4.2%	-33%[inhibitor]	nt	-12%
Nc1c(C(=O)CSc2nnc(Cc3ccccc3)o2)c(=O)[nH]c(=O)n1C1CC1	nt	0	-15	-0.5%	-15%	nt	4%
CCn1cc[n+](C)c1P(c1ccccc1)c1ccccc1	4.6	5	-3	1.7%	?	34%[activator]	15%
COC(=O)c1ccc(-c2nc3cc(N)ccc3o2)cc1	2.6	-8	0	-0.7%	26%	8%	14%
COc1ccc(NC(=O)CN(C)CC(=O)N2CCCCCC2)cc1	nt	-5	29	-4.9%	6%[15.4 µM]	nt	8%
CC(C)c1ccc(C(C(=O)NC2CCCC2)N(C(=O)CNC(=O)c2ccco2)c2cccnc2)cc1 (stereo not given)	14	-8	-10	-1.5%	-52%[inhibitor]	11%	11%
COC(=O)c1sc(-c2ccc(Cl)cc2)cc1NC(=O)COCC(=O)O	3.3	13	-23	4.2%	-2%	3%	?
COc1ccccc1N1CCN(C(=O)c2cc3cc(Cl)ccc3[nH]2)CC1	3.3	2	0	-1.5%	?	-4%	-3%
CNNC(=S)Nc1ccc(Cl)cc1	1.5	6	nt	nt	15%[15.4 µM]	-1%	4%
O=C(CNCCN1CCOCC1)Nc1ccccc1Sc1ccccc1	8.0	12	-10	nt	5%	56µM*	6%
OC1CCCN(Cc2ccccc2)C1 (stereo not given)	1.5	2	1	-2.6%	-7%	14%	-1%
Cc1[nH]c(=O)[nH]c(=O)c1CSCC(=O)OCC(=O)c1ccc(Br)cc1	-1.0	3	-15	nt	-3%[15.4 µM]	10%	5%
CC1CCCCC1NC(=O)C1CCN(C(=O)NC2CCCCC2)CC1 (stereo not given)	-0.5	-6	?	-0.8%	-1%	-7%	-5%
C=CCSc1nc2sc3c(c2c(=O)[nH]1)CC(C)(C)OC3	nt	0	nt	nt	14%	nt	-11%
Cc1cc(=O)oc2c(C)c(OCC(=O)NCCN3CCOCC3)ccc12	nt	-13	11	3.4%	2%	13%	10%
CSc1nc2ccccc2c(=O)n1N	0.5	-1	-16	-6.1%	7%	15%	8%
NC1=NN=C(N2N=C(c3ccco3)CC2(O)C(F)(F)F)n2ncnc2C1 (stereo not given)	-1.2	41	-13	nt	16%[15.4 µM]	14%	nt
COc1ccc(OC)c(NC(=O)c2cc(-c3c(C)cc(C)cc3O)n[nH]2)c1	2.2	-1	4	3.9%	15%	3%	5%
Cc1onc(C(=O)N2CCC(C(N)=O)CC2)c1-c1ccccc1Cl	2.0	19	6	0.5%	-1%	9%	-4%
NC(=S)Nc1cccc2cn[nH]c12	0.5	-9	-29	nt	5%[15.4 µM]	56µM*	11%
COCCCN1CN(S(=O)(=O)c2ccc(C)cc2C)c2nc3ccccc3nc21	-1.1	34	-18	-4.1%	-16%	-12%	3%
COc1cccc(C(=O)Nc2ccc3[nH]ncc3c2)c1	-0.9	0	-12	nt	6%	24%	3%
O=C(CN1CCN(S(=O)(=O)N2CCOCC2)CC1)Nc1cc(Cl)ccc1Cl	nt	-8	-2	nt	11%[15.4 µM]	6%	-11%
Cc1cc(N2CCN(C)CC2)ccc1NC(=O)c1ccc(-c2ccc(Cl)cc2)o1	nt	27	6	nt	-17%[15.4 µM]	nt	3%
COCCCNC(=S)NC1CCCCC1	8.3	-19	-24	2.2%	-2%	11%	11%
O=C(CNC(=O)c1ccc(S(=O)(=O)N2CCCC2)cc1)N/N=C/c1ccc(Cl)cc1Cl	6.9	-14	9	-0.9%	16%[15.4 µM]	19%	-3%
O=C1CNC(=O)N1CC(=O)N1CCCc2ccccc21	6.4	-7	4	0.3%	1%	11%	5%
CC(=O)c1cccc(CN2CCN(CCc3ccccc3)C(CCO)C2)c1 (stereo not given)	-5.0	-4	9	-12%	5%[15.4 µM]	0%	-8%
O=c1c(OCc2ccccc2)cccn1Cc1ccccc1	nt	-7	nt	-16%	-17%	nt	nt
CN(C)CCSc1nc(-c2ccccc2)nc2c1COC(C)(C)C2	6.0	1	-39	-0.8%	-10%	13%	10%
COc1ccc(C(C(=O)NCC2CCCO2)N(C(=O)CNC(=O)c2cccs2)c2ccc(C(C)=O)cc2)cc1OC (stereo not given)	1.4	17	10	nt	4%	14%	10%
CCC(C)C1=CC(=Nc2c(C)n(C)n(-c3ccccc3)c2=O)C=C(C(C)CC)C1=O (stereo not given)	0.5	5	-3	nt	24%	12%	-9%
c1ccc(-c2csc3ncnc(NCCCN4CCOCC4)c23)cc1	4.0	-3	-15	-4.1%	?	10%	6%
Cc1ccnc(NS(=O)(=O)c2ccc(NC(=O)C3C4C=CC(C4)C3C(=O)O)cc2)n1 (stereo not given)	-0.2	9	5	-1.4%	-2%	9%	5%
Cc1cc(C)nc(SCC(=O)N/N=C\c2sccc2C)n1	4.4	-10	5	-0.6%	23%	-20%	-5%
Fc1cccc(-n2ncc(-c3nnnn3-c3ccccc3)c2C(F)(F)F)c1	0.6	-4	-43	0.4%	-47%	-14%	-11%
CC(/C=C/c1ccccc1)=N\NC(=O)c1ccncc1	0.3	11	-10	0.7%	8%	-1%	-1%
Cc1cc(C)cc(Oc2ccc(-c3nnc(-c4ccccc4)o3)cc2[N+](=O)[O-])c1	-1.3	17	0	0.8%	7%	8%	-46%
CCOc1ccc(NC(=O)c2ccc(NC(=O)c3ccccc3Br)cc2)cc1	nt	-11	4	nt	35%[15.4 µM]	nt	10%
CCCCN(C)S(=O)(=O)c1cc(Br)cc2c1N(C(=O)C1CC1)CC2	-0.5	9	3	-0.9%	2%	-10%	-10%
Cc1cccc(N2C(=O)CC(SC(=Nc3ccccc3)Nc3ccccc3)C2=O)c1 (stereo not given)	-1.6	14	-13	-10%	-24%	8%	-18%
Cc1ccc(C(=O)NCCCn2ccnc2)o1	-1.8	30	27	-0.4%	-9%	15%	8%
CC(=O)NCc1ccc(C(=O)O)cc1	-1.7	20	1	-1.3%	2%	-4%	10%
CS(=O)(=O)Nc1cccc(-c2cn3ccccc3n2)c1	-0.4	-9	5	3.7%	2%	14%	-28%
O=C1CSC(=S)N1c1ccc(F)c(Cl)c1	15	23	-5	1.2%	21%	-2%	1%
CCN(CCO)c1ccc(NC(=S)Nc2cccc(S(=O)(=O)N(C)C)c2)cc1	0.4	1	4	nt	40%[15.4 µM]	50µM*	-7%
O=C(/C=C/c1ccco1)N1CCC(Cc2ccccc2)CC1	3.2	-12	-12	?	-6%[15.4 µM]	?	-1%
Cc1cc(C)c(S(=O)(=O)NCC(c2ccco2)N2CCc3ccccc3C2)c(C)c1 (stereo not given)	nt	42	-3	?	-50%[inhibitor]	nt	-10%
Cc1ccc(/C=N/NC(=O)c2c(C)nc3ccc(Br)cn23)cc1	1.1	nt	10	1.0%	?	28%	16%
Cc1c(C(C)NC(=O)c2ccc3nc(Cc4ccccc4F)oc3c2)cnn1C (stereo not given)	nt	20	?	0.1%	-1%	-3%	-6%
C#CCN1C(=O)S/C(=C\c2cc3c(cc2OC)OCO3)C1=O	?	-9	-15	-1.7%	3%[15.4 µM]	-8%	-4%
CCSc1nc2ccccc2c(=O)n1Cc1ccc(F)cc1	-3.3	-2	4	-2.6%	14%[15.4 µM]	-17%	-11%
O=C(CN1CCN(S(=O)(=O)c2ccc(F)cc2)CC1)NC1CCCC1	nt	1	-7	2.1%	-9%	18%	15%
COc1ccc(C(=O)NCC(=O)N/N=C(\C)c2ccco2)cc1OC	-6.9	-9	-1	0.1%	-2%[15.4 µM]	10%	-3%
CCOc1ccc(NC(=O)CN(C)C(=O)c2ccc(C3SCCS3)cc2)cc1OCC	nt	28	0	-0.3%	-1%	nt	0%
CN(C)c1ccnc(Nc2ccc(O)cc2)c1C#N	2.3	3	17	nt	2%[15.4 µM]	-3%	7%
CCN(CC)C(=O)C1CCCN(C(=O)c2ccc3nc(-c4cccc(OC)c4)oc3c2)C1 (stereo not given)	nt	-4	nt	-14%	-29%	nt	nt
Cc1ccc(S(=O)(=O)NCN2C(=O)c3ccccc3C2=O)cc1	nt	-4	nt	0.2%	-22%	nt	nt
CC(=O)Nc1c(Cl)cc([N+](=O)[O-])c2ccccc12	3.4	19	0	0.7%	-10%[15.4 µM]	-3%	19%
Cc1cc(C(=O)Nc2cccc(-c3ccc(N4CCOCC4)nn3)c2)ccc1[N+](=O)[O-]	nt	-19	-8	nt	-10%[15.4 µM]	nt	?

The results go on.
SMILES	Menin-MLL FL inh	TRPML1 inh	TRPV1 potentiator	ClpP mod	gsp ag	Sfp inh	gsp antagonist
Cc1cc(C(=O)NNC(=S)NCC(C)C)no1	3.0	-4	-6	0.8%	33%	7%	16%
CN(C)c1ccc(-c2nn3c(-c4ccc(Cl)cc4Cl)nnc3s2)cc1	1.4	nt	-7	nt	nt	1%	nt
O=C(CCCOc1ccccc1)NC1CCCc2ccccc21 (stereo not given)	-2.6	-15	-6	0.7%	-9%	5%	-7%
CSCC(=O)NC1CCCN(C2Cc3ccccc3C2)C1 (stereo not given)	-0.4	4	3	-2.0%	-11%	14%	9%
COc1ccccc1-c1nnc(SCC(=O)O)n1-c1ccccc1	1.8	4	3	nt	-5%[15.4 µM]	26%	-10%
Cc1cc(C)c(S(=O)(=O)c2ccccc2)c(OC(=O)c2c(F)cccc2Cl)n1	-2.1	31	-4	2.0%	11%	-3%	7%
Cc1ccc(C)c(N2CCN(C(=O)CCC(=O)Nc3nnc(C(F)(F)F)s3)CC2)c1	nt	20	-11	0.8%	?	13%	-14%
CCOCC(=O)Nc1cc(C)on1	-4.4	22	9	-4.0%	2%	23%	4%
CCOC(=O)CSc1nc2c(c(-c3ccc(C)o3)c1C#N)CCCC2	?	-6	-9	28µM*	27%	14µM*	?

Screening results as filed in PubChem.
